Assay outcomes as filed in PubChem BioAssay.
2A StopGo – lowers the luciferase signal of an FMDV 2A StopGo reporter; actives 1.2% (n = 410,000); AID 1159524; Potency, µM (top dose mostly 57.9 µM), inactives show top-dose signal change, negative = less light; human cells with a luciferase reporter of 2A StopGo recoding; control for the full effect not named in the record; active = well fitted falling curve with a large enough effect; inconclusive = small, poorly fitted or top-dose-only effect; inactive = no such curve, though single readings can be large or run the other way; tested in HEK293T cells; note: % is set by controls: 0 for no effect and ±100 for the full control effect; nearly all actives have a fitted effect of over 45% in size; luciferase light after 4 h
Cruzain inh Det – blocks cruzain activity in presence of Triton detergent. actives 0.43% (n = 200,000). Potency, µM, inactives show max response, negative = inhibition, most hits filed as inhibitors. P25779. purified cruzain, Z-FR-AMC fluorescence, 0.01% Triton; active = well fitted curve in the direction sought with a large enough effect; inconclusive = small, poorly fitted or top-dose-only effect, or another doubt; inactive = no such curve, though single readings can be large; an effect the other way counts as inactive or inconclusive;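 note: plate controls were neutral wells for no effect and buffer without enzyme for full effect; nearly all actives have a fitted effect of over 40% in size; top concentration of the series not given in the record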
Target sequence (P25779 123-467 limits assumed): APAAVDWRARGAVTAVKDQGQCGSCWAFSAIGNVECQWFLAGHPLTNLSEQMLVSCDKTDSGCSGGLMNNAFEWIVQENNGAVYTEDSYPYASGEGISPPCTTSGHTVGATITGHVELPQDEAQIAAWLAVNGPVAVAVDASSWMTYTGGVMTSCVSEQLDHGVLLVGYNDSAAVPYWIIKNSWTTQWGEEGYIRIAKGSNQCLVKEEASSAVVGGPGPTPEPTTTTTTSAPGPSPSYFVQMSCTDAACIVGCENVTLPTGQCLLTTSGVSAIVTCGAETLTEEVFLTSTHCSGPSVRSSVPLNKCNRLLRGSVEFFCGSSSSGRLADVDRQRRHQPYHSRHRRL
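Compounds were screened in titration against cruzain (1.5 nM) with 0.01% Triton X-100 to counter colloidal aggregation. Activity was the AMC fluorescence increase over 60 s after adding 2 uM Z-FR-AMC at pH 5.5.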
Cruzain inh noDet – inhibitors of Trypanosoma cruzi cruzain without detergent; purified cruzain, Z-FR-AMC fluorescence, no detergent; actives 2.3% (n = 200,000); P25779; Potency, µM, inactives show max response, negative = inhibition, usual class: inhibitors; AID 1476; active = well fitted curve in the direction sought with a large enough effect; inconclusive = small, poorly fitted or top-dose-only effect, or another doubt; inactive = no such curve, though single readings can be large; an effect the other way counts as inactive or inconclusive;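 note: plate controls were enzyme without inhibitor for no effect and buffer without enzyme for full effect; nearly all actives have a fitted effect of over 40% in size; top concentration of the series not given in the record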
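Purified cruzain at 1.5 nM, pre-incubated 15 min with compound at room temperature in 100 mM sodium acetate pH 5.5, 5 mM DTT, 0.00005% Triton X-100. Reaction started with 2 uM Z-FR-AMC; AMC fluorescence increase over 60 s gives rate.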
SARS PLpro yeast – blocks SARS-CoV papain-like protease in a yeast assay | S. cerevisiae expressing SARS-CoV PLpro, growth rescue; control for the full effect not named in the record | Potency, µM (top dose mostly 32.9 µM), without a hit: top-dose activity, positive = growth rescue | actives 0.19% (n = 330,000); note: 0% is about no effect; nearly all actives have a fitted effect of over 55% in size; growth read by luminescence after 48 h
MARV entry inh – blocks Marburg virus binding to or entry into cells; actives 1.8% (n = 300,000); Marburg virus pseudotyped entry inhibition, cell reporter; control for the full effect not named in the record; about a third of the inactives were read at about 46 µM; AID 540276; Potency, µM (titrated, usually from 37.8 µM), for the others: top-dose activity change, negative = inhibition, actives largely listed as inhibitors; active = well fitted inhibition curve with a large enough effect; inconclusive = small, poorly fitted or top-dose-only effect, or effect the other way; inactive = flat fitted curve, though single readings scatter; tested in HEK293 cells; about a fifth of its hits are not listed in these tables; note: % is set by controls: 0 for no effect and ±100 for the full control effect; luciferase read-out
NS1 function inh – inhibitors of influenza NS1 protein function; AID 2326; actives 0.4% (n = 270,000); Potency, µM (highest dose often 46.1 µM), inactives show at the highest dose activity, positive = more growth; S. cerevisiae slowed by influenza A NS1, growth recovery by OD600; note: actives are rising curves; nearly all actives have a fitted effect of over 50% in size
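In this qHTS, NS1 from influenza A is expressed in budding yeast, where it slows growth. Cells are switched from glucose to 2% galactose medium (pH 6.0, -URA), treated with compound, and growth recovery is read at OD600.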
RE007 growth inh – less growth of the S. pombe RE007 Vpr strain. S. pombe RE007 Vpr strain, BacTiter-Glo ATP luminescence, 24 h; control for the full effect not named in the record. Potency, µM (series often up to 92.2 µM), inactives show at the highest dose activity change, negative = less growth. actives 0.21% (n = 360,000); active = well fitted falling curve with a large enough effect; inconclusive = small, poorly fitted or top-dose-only effect; inactive = no such curve, though single readings can be large or run the other way;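 note: % is set by controls: 0 for no effect and ±100 for the full control effect; nearly all actives have a fitted effect of over 50% in size; the assay follows cell death caused by Vpr and the record does not say whether a fall means rescue or toxicity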
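Fission yeast strain RE007, carrying one chromosomally integrated HIV-1 vpr copy, was seeded at OD 0.01 in PMG+AL medium with 23 nL pinned compound. After 24 h at 30 °C and 99% humidity, viability was read by BacTiter-Glo luminescence.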
Lassa entry inh – inhibitors of Lassa virus binding or cell entry; Potency, µM (highest dose often 37.9 µM), for inactives: at the highest dose activity change, negative = inhibition, usual class: inhibitors; actives 1.2% (n = 300,000); Lassa virus pseudotype entry inhibition, cell reporter; control for the full effect not named in the record; active means well fitted inhibition curve with a large enough effect; inconclusive means small, poorly fitted or top-dose-only effect, or effect the other way; inactive means flat fitted curve, though single readings scatter; tested in HEK293 cells; note: % is set by controls: 0 for no effect and ±100 for the full control effect; nearly all actives have a fitted effect of over 50% in size; luciferase read-out
* marks the source's active call; other numbers are inactive results; ? = inconclusive; . = not tested or not shown; & = joins results of further samples; [ ] = another dose, or the depositor's remark. Unless noted, calls come from the whole dose curve; as a rule, active means well fitted rising curve with a large enough effect; inconclusive means small, poorly fitted or top-dose-only effect; inactive means no such curve, though single readings can be large or run the other way. Potency is the fitted concentration of half-maximal effect.

SMILES	2A StopGo	Cruzain inh Det	Cruzain inh noDet	SARS PLpro yeast	MARV entry inh	NS1 function inh	RE007 growth inh	Lassa entry inh
Cc1ccccc1N1CC(C(=O)NC2CCCC2)CC1=O (stereo not given)	-1%	.	.	6%	-2%[46.1 µM]	23%	6%	-3%
CCOCCCNC(=O)c1cc(=O)[nH]c2ccc(S(=O)(=O)N3CCCC3)cc12	-14%	-3.6%	-10%	.	?	.	.	1%[46.1 µM]
Cc1ccccc1N(C(=O)c1cccs1)c1nc2ccccc2s1	-22%	1.2%	?	-16%	?	-2%	5%	?
Cc1ccc(C(=O)c2coc3ccc(OCC(=O)O)cc23)cc1	18%	0.6%	-10%	-1%	15%[46.1 µM]	3%	-6%	0%
COc1ccc(-c2nn(-c3ccccc3)cc2C(=O)NCC(c2cccs2)N2CCOCC2)cc1 (stereo not given)	-7%	.	.	0%	?	.	6%	-16%
Cc1nc(-c2cccc(NC(=O)c3ccc(-n4nccc4C)cc3)c2)cs1	22µM*	.	.	6%	-72%	.	-3%	?
S=C(NC1CCCC1)NN1CCOCC1	-6%	.	.	0%	11%[46.1 µM]	.	9%	22%[46.1 µM]
N#Cc1ccccc1NC(=O)CN(Cc1ccccc1)Cc1ccccc1	-16%	.	.	-11%	?	-6%	3%	?
CCOC(=O)Cc1csc(NC(=S)NC(=O)c2ccc([N+](=O)[O-])cc2)n1	?	-5.5%	-7%	6%	0%	10%	2%	4%
CCOc1ccc(-c2csc(C3COc4ccccc4O3)n2)cc1 (stereo not given)	69%[activator]	.	.	.	-5%	.	-11%	37%[14.3 µM]
O=C/C(=C\Nc1ccc(C(=O)N2CCOCC2)cc1)c1nc2ccccc2o1	-19%	.	.	0%	21%[46.1 µM]	.	6%	2%
CC(=O)c1ccc(NC(=O)CN2CCC(C(=O)c3ccc(F)cc3)CC2)cc1	-5%	.	.	1%	-24%[46.1 µM]	12%	4%	-27%
CCCCOc1cccc(C(=O)NC(=S)Nc2ccc(Cl)c(C(=O)O)c2)c1	23%	.	.	0%	.	20%	3%	.
CN1CCN(C(=O)c2ccc3nc(-c4ccccc4)c(-c4ccccc4)nc3c2)CC1	3%	.	.	0%	?	4%	-13%	-16%
CCC/C(=N/NC(=O)c1csc(C)c1C)c1ccc(Cl)s1	13%	-1.3%	1%	1%	11%	6%	18%	-28%
Cc1nnc(NC(=O)CN2C(=O)NC3(CCCC3)C2=O)s1	-6%	.	.	.	22%	.	11%	?
CCCN(c1c(C)n(C)n(-c2ccccc2)c1=O)S(=O)(=O)c1ccc(C)cc1	-8%	0.4%	-7%	.	7%[46.1 µM]	.	.	-19%[46.1 µM]
C=CCc1ccc(OCCOc2cccc3ccc(C)nc23)c(OC)c1	-10%	3.9%	?	6%	?	-49%	-4%	-9%
O=C(CN1C(=O)NC2(CCCCCCC2)C1=O)NCc1cccs1	-2%	-2.1%	-3%	14%	-4%[46.1 µM]	4%	-7%	5%[46.1 µM]
C=C(C(C)=O)C(O)c1ccco1 (stereo not given)	.	5.7%	-2%	.	0%&0%[14.2 µM]	.	.	?
O=C(c1cc2ccccc2oc1=O)N(Cc1cccc(Cl)c1)C1CCS(=O)(=O)C1 (stereo not given)	10%	-4.7%	1%	.	-3%[46.1 µM]	.	.	-16%[46.1 µM]
Cc1ccc(C(=O)Nc2cccc(NC(=O)c3ccc(C)cc3)n2)cc1	26%	.	.	.	-9%[46.1 µM]	.	-2%	-9%
COc1ccc2[nH]c3c(c2c1)CCN1C(=O)C(CC(=O)NCCC2=CCCCC2)C[C@H](C(=O)N2CCOCC2)[C@@]31CCC1CCCC1 (stereo not given in full)	1%	.	.	-12%	0%	.	2%	.
COc1ccc(CNC(=O)c2c3c(nc4ccccc24)C(=O)N(C2CCCCC2)C3)c(OC)c1	-14%	-4.9%	13%	.	?	.	.	0%[46.1 µM]
CCC(C(=O)N1CCC2(CC1)OCCO2)c1ccccc1 (stereo not given)	-24%	1.9%	10%	-12%	13%	5%	9%	4%
COc1ccc(C(C(=O)NC(C)(C)C)N(C(=O)CNC(=O)c2cccs2)c2ccc(NC(C)=O)cc2)cc1OC (stereo not given)	-5%	.	.	-1%	-3%[46.1 µM]	-5%	23%	17%
Cc1noc(C)c1CSc1nc2sc(C)c(C)c2c(=O)n1-c1ccccc1	-23%	-1.0%	-13%	4%	1%	-14%	25%	1%
COc1cccc(N(Cc2nnc3n2CCCCC3)C(=O)Nc2ccccc2F)c1	-19%	.	.	1%	-15%	.	3%	10%
Cc1ccc(C(=O)N2CC(C)OC(C)C2)c(Cl)c1 (stereo not given)	24%	6.7%	-4%	26%	8%	4%	17%	26%
CCc1nn2c(=O)cc(COC(=O)c3ccccc3NC(=O)COc3ccccc3C)nc2s1	22%	-0.5%	-1%	.	.	.	.	15%[46.1 µM]
CCSc1nc2cc(OC)c(OC)cc2c(=O)n1CCc1ccccc1	-3%	-4.4%	?	-2%	?	3%	17%	?
Cc1ccc(NC(=O)CN(C)C(=O)Cn2nnc(-c3ccccc3)n2)cc1	-9%	.	.	3%	4%[46.1 µM]	.	-3%	-3%
COc1cc(/C=N/N=C(\N)c2nonc2N)cc(OC)c1OC	4%	.	.	-13%	25%[46.1 µM]	.	5%	4%[46.1 µM]
Cc1ccnc(NC(=O)COc2c(C)cc(C)cc2[N+](=O)[O-])c1	-5%	-4.4%	-22%	14%	-2%	-9%	0%	8%
O=S(=O)(c1ccc(F)c(F)c1F)N1CCN(C(=S)NC2CC3CCC2C3)CC1 (stereo not given)	-5%	.	.	1%	.	4%	-6%	.
CC(=O)Nc1ccc(-n2c(C)c(C(C)=O)c(C(C)=O)c2C)cc1	-11%	6.3%	-5%	1%	22%	9%	0%	-25%
CCCS(=O)(=O)c1c(S(=O)(=O)CCC)c2cnccn2c1C(=O)c1ccc(Cl)cc1	-30%	0.7%	17%	-5%	9%	1%	22%	5%
O=C(CP(=O)(c1ccccc1)c1ccccc1)N1CCCCC1	6%	-0.2%	-9%	20%	25%	0%	21%	-12%
COc1ccc(N(Cc2cc3ccc(C)cc3[nH]c2=O)C(=O)C2CCCO2)cc1 (stereo not given)	-2%	.	.	1%	29%	-3%	-9%	-16%
Cc1ccc(NC(=O)c2cc(CN3CCOCC3)on2)cc1Cl	38%[activator]	-1.2%	0%	.	.	.	.	?
CN1CCN(CCCNC(=O)c2ccc(/C=C3\Oc4ccccc4N(Cc4ccc(Cl)cc4)C3=O)cc2)CC1	?	.	.	-1%	.	11%	12%	.
Cc1ccc(N(CC2CO2)S(=O)(=O)c2ccccc2[N+](=O)[O-])cc1 (stereo not given)	13%	.	.	-1%	1%[46.1 µM]	0%	1%	-2%
COc1ccc(NC(=O)c2cc(C)nc3c2c(C)nn3-c2ccc(C)cc2)cc1OC	-28%	-0.4%	-18%	.	.	.	.	1%[46.1 µM]
COc1ccc(C2Nc3ccccc3C(=O)N2c2ccc(F)cc2)cc1CSc1ccccn1 (stereo not given)	-9%	-9.2%	-25%	6%	?	23%	4%	-30%
CCC(C)NCCOc1ccc(Br)cc1 (stereo not given)	-11%	0.9%	-1%	-2%	?	-11%	-7%	-15%
CCCCCC(=O)NNC1=NCC(Cc2cccc(Cl)c2)S1 (stereo not given)	-14%	.	.	10%	8%	.	1%	-1%
Cc1ccc(CN2CCN(C3CCN(S(=O)(=O)c4ccc(C)cc4)CC3)C(=O)C2=O)cc1	-16%	2.5%	-8%	.	.	.	.	2%[46.1 µM]
Cc1cc(C)c(NC(=O)C2CCCN2CCOC(=O)c2ccccc2)c(C)c1 (stereo not given)	-16%	-3.3%	-5%	-7%	-11%	-45%	-15%	0%
O=C(/C=C/c1ccccc1)N/C(=C/c1ccccc1)C(=O)NCCO	-2%	-0.3%	-1%	2%	?	9%	10%	5%
Cc1cc(N2CCOCC2)nc2ccc(NC(=S)NCc3ccc4c(c3)OCO4)cc12	13%	.	.	2%	9%	.	-7%	4%
Clc1ccc(-c2nc3ccccc3nc2-c2ccccc2)cc1	?	-5.5%	-9%	-36%	-19%	-17%	5%	2%
COc1ccc(CNC(=O)Cn2cnc3c(=O)n(C)c(=O)n(C)c32)cc1	-6%	-0.7%	3%	5%	18%	3%	-4%	?
O=C(NC(=S)Nc1cc(C(F)(F)F)ccc1Cl)c1ccccc1	12%	-10%	-19%	3%	?	21%	1%	-18%
O=C(Oc1cccc(Oc2ccccc2)c1)N1CCOCC1	.	0.7%	8%	-6%	9%	-77%	13%	5%
CCN(CC(=O)NC1CCS(=O)(=O)C1)S(=O)(=O)c1ccc(F)cc1 (stereo not given)	-13%	-2.4%	10%	18%	9%	15%	16%	?
Cn1c(=O)c2c([nH]c(=O)n2Cc2ccc(Cl)cc2Cl)n(C)c1=O	0%	-2.4%	-4%	.	-3%[46.1 µM]	.	.	-12%[46.1 µM]
COc1ccc(CNC(=O)c2nc(SCc3ccc(C)cc3)ncc2Cl)cc1	-18%	3.1%	1%	.	15%[46.1 µM]	.	.	?
Cc1ccc(OCCC(=O)OCC(=O)Nc2ccc(N3CCOCC3)cc2)cc1	-1%	.	.	-2%	-2%[46.1 µM]	.	-12%	-1%
Cc1noc(/C=C/c2cccs2)c1S(=O)(=O)N1CCC(C(=O)NCc2ccc(Cl)cc2)CC1	-23%	-4.0%	-21%	.	-2%[46.1 µM]	.	.	9%[46.1 µM]
NS(=O)(=O)c1ccc(N=Nc2ccc(=O)[nH]c2O)cc1	4%	.	.	2%	4%	13%	10%	11%

Going on with the list.
SMILES	2A StopGo	Cruzain inh Det	Cruzain inh noDet	SARS PLpro yeast	MARV entry inh	NS1 function inh	RE007 growth inh	Lassa entry inh
COc1ccc(NC(=O)CCc2nnc3ccc(NCc4ccco4)nn23)cc1	2%	.	.	0%	-2%[46.1 µM]	-1%	-4%	?
COc1ccccc1OC1=NS(=O)(=O)c2ccccc21	40µM*	5.1%	7%	-1%	6%&6%	-83%	17%	11%
CCOc1ccccc1C(=O)NC(C(=O)NCc1ccccc1OC)C(C)C (stereo not given)	-13%	.	.	0%	?	.	-1%	-13%
O=C1C=C(N2CCN(C3=CC(=O)CCC3)CC2)CCC1	0%	-1.7%	-1%	2%	5%	-7%	0%	5%
